Screening data deposited in PubChem BioAssay by National Center for Advancing Translational Sciences (NCATS).
Cruzain inh Det: cruzain (T. cruzi) inhibition with detergent. P25779. purified cruzain, Z-FR-AMC fluorescence, 0.01% Triton. Potency, µM, inactives show max response, negative = inhibition, most hits filed as inhibitors. actives 0.43% (n = 200,000);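 note: plate controls were neutral wells for no effect and buffer without enzyme for full effect; nearly all actives have a fitted effect of over 40% in size; top concentration of the series not given in the record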
Target sequence (P25779 123-467 limits assumed): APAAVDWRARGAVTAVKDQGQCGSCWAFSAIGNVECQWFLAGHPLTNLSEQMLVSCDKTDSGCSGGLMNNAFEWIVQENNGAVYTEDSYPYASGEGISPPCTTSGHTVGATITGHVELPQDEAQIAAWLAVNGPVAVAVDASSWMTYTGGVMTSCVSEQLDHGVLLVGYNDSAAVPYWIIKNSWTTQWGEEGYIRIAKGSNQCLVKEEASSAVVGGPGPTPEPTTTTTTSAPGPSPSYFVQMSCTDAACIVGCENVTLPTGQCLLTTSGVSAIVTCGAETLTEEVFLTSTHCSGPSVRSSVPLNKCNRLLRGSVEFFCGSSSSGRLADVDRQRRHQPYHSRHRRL
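15 min RT preincubation of 1.5 nM cruzain with compound, then 2 uM Z-FR-AMC added; kinetic AMC fluorescence, 60 s delta. Triton X-100 0.01%, pH 5.5.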
SARS PLP yeast: SARS-CoV PLP inhibition in yeast; S. cerevisiae expressing SARS-CoV PLpro, growth rescue; control for the full effect not named in the record; Potency, µM (series often up to 32.9 µM), without a hit: top-dose activity, positive = growth rescue; actives 0.19% (n = 330,000); AID 485353; active means well fitted rising curve with a large enough effect; inconclusive means small, poorly fitted or top-dose-only effect; inactive means no such curve, though single readings can be large or run the other way; note: 0% is about no effect; nearly all actives have a fitted effect of over 55% in size; growth read by luminescence after 48 h
RE007 growth inh: less growth of the S. pombe RE007 Vpr strain. Potency, µM (series often up to 92.2 µM), for the others: top-dose activity change, negative = less growth. actives 0.21% (n = 360,000). S. pombe RE007 Vpr strain, BacTiter-Glo ATP luminescence, 24 h; control for the full effect not named in the record. AID 651644; active = well fitted falling curve with a large enough effect; inconclusive = small, poorly fitted or top-dose-only effect; inactive = no such curve, though single readings can be large or run the other way;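 note: % is set by controls: 0 for no effect and ±100 for the full control effect; nearly all actives have a fitted effect of over 50% in size; the assay follows cell death caused by Vpr and the record does not say whether a fall means rescue or toxicity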
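Fission yeast strain RE007, carrying one chromosomally integrated HIV-1 vpr copy, was seeded at OD 0.01 in PMG+AL medium with 23 nL pinned compound. After 24 h at 30 °C and 99% humidity, viability was read by BacTiter-Glo luminescence.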
StopGo reporter: lowers the luciferase signal of an FMDV 2A StopGo reporter | human cells with a luciferase reporter of 2A StopGo recoding; control for the full effect not named in the record | Potency, µM (highest dose often 57.9 µM), without a hit: top-dose signal change, negative = less light | actives 1.2% (n = 410,000); active = well fitted falling curve with a large enough effect; inconclusive = small, poorly fitted or top-dose-only effect; inactive = no such curve, though single readings can be large or run the other way; tested in HEK293T cells; note: % is set by controls: 0 for no effect and ±100 for the full control effect; nearly all actives have a fitted effect of over 45% in size; luciferase light after 4 h
NS1 function inh: blocks influenza NS1 protein function | S. cerevisiae slowed by influenza A NS1, growth recovery by OD600 | Potency, µM (top dose mostly 46.1 µM), for the others: at the highest dose activity, positive = more growth | actives 0.4% (n = 270,000) | AID 2326; active means well fitted rising curve with a large enough effect; inconclusive means small, poorly fitted or top-dose-only effect; inactive means no such curve, though single readings can be large or run the other way; note: nearly all actives have a fitted effect of over 50% in size
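Growth recovery, yeast-based: influenza A NS1 expressed in S. cerevisiae causes slow growth, and suppressors are detected by OD600. The parent strain without NS1 is used as positive control.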
LASV entry inh: Lassa virus entry inhibition; Lassa virus pseudotype entry inhibition, cell reporter; control for the full effect not named in the record; Potency, µM (top dose mostly 37.9 µM), for inactives: at the top dose activity change, negative = inhibition, actives largely listed as inhibitors; actives 1.2% (n = 300,000); AID 540256; active means well fitted inhibition curve with a large enough effect; inconclusive means small, poorly fitted or top-dose-only effect, or effect the other way; inactive means flat fitted curve, though single readings scatter; tested in HEK293 cells; note: % is set by controls: 0 for no effect and ±100 for the full control effect; nearly all actives have a fitted effect of over 50% in size; luciferase read-out
Marburg entry inh: inhibitors of Marburg virus binding or cell entry | Marburg virus pseudotyped entry inhibition, cell reporter; control for the full effect not named in the record; about a third of the inactives were read at about 46 µM | Potency, µM (titrated, usually from 37.8 µM), for inactives: at the top dose activity change, negative = inhibition, hits mostly inhibitors | actives 1.8% (n = 300,000); active = well fitted inhibition curve with a large enough effect; inconclusive = small, poorly fitted or top-dose-only effect, or effect the other way; inactive = flat fitted curve, though single readings scatter; tested in HEK293 cells; about a fifth of its hits are not listed in these tables; note: % is set by controls: 0 for no effect and ±100 for the full control effect; luciferase read-out
Cruzain noTriton: inhibitors of Trypanosoma cruzi cruzain without detergent | AID 1476 | Potency, µM, for inactives: max response, negative = inhibition, usual class: inhibitors | purified cruzain, Z-FR-AMC fluorescence, no detergent | actives 2.3% (n = 200,000) | P25779;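 note: plate controls were enzyme without inhibitor for no effect and buffer without enzyme for full effect; nearly all actives have a fitted effect of over 40% in size; top concentration of the series not given in the record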
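Detergent-free condition (0.00005% Triton X-100) in acetate buffer pH 5.5 with DTT. 1.5 nM enzyme and compound were pre-mixed 15 min, then 2 uM Z-FR-AMC substrate added; reaction progress from fluorescence change between first and third reads (60 s).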
* hit, by the source's call; [ ] = dose if it differs, or a comment. Unless noted, calls come from the whole dose curve; as a rule, active = well fitted curve in the direction sought with a large enough effect; inconclusive = small, poorly fitted or top-dose-only effect, or another doubt; inactive = no such curve, though single readings can be large; an effect the other way counts as inactive or inconclusive. Potency is the fitted concentration of half-maximal effect.

CC(=O)NC1C(Oc2ccccc2C)OC2COC(c3ccco3)OC2C1O (stereo not given) was read as Cruzain inh Det 1.5%, SARS PLP yeast 20%, RE007 growth inh -1%, StopGo reporter 6%, NS1 function inh inconclusive, LASV entry inh 17%, Marburg entry inh 13% and Cruzain noTriton 9%.
O=C(CNCCO)NC12CC3CC(CC(C3)C1)C2 was read as Cruzain inh Det 2.8%, SARS PLP yeast 1%, RE007 growth inh 26%, StopGo reporter -13%, NS1 function inh -9%, LASV entry inh 4%, Marburg entry inh -3% and Cruzain noTriton 2%.
Screening CCOc1ccc(C(=O)NCC(=O)OC2CCOC2=O)cc1OCC (stereo not given) returned Cruzain inh Det 0.1%, SARS PLP yeast 23%, RE007 growth inh 1%, StopGo reporter 15%, NS1 function inh 4%, LASV entry inh -2%, Marburg entry inh -12%[46.1 µM] and Cruzain noTriton 6%.
`COc1ccc(-c2nc3ccccc3o2)cc1NC(=O)c1ccc(Br)o1` gave Cruzain inh Det -5.0%, SARS PLP yeast 6%, RE007 growth inh -1%, StopGo reporter -11%, NS1 function inh -31%, LASV entry inh 12%, Marburg entry inh -1% and Cruzain noTriton -27%.
Screening C=CCNC(=O)/C(C#N)=C/c1c(N2CCN(c3cccc(Cl)c3)CC2)nc2c(C)cccn2c1=O returned SARS PLP yeast 0%, RE007 growth inh -10%, StopGo reporter -2%, NS1 function inh 10%, LASV entry inh 3% and Marburg entry inh -1%.
COc1cc(C2C3=C(CC(C)(C)CC3=O)OC3=C2C(=O)CC(C)(C)C3)cc([N+](=O)[O-])c1O was read as SARS PLP yeast 0%, RE007 growth inh 0%, StopGo reporter 2%, NS1 function inh -2%, LASV entry inh -13% and Marburg entry inh 0%[46.1 µM].
`O=C(N/N=C/c1ccc(O)cc1)c1ccc(NC(=O)c2ccccc2Br)cc1` gave Cruzain inh Det -4.6%, SARS PLP yeast 1%, RE007 growth inh 0%, StopGo reporter -17%, NS1 function inh 3%, LASV entry inh 2.5µM*, Marburg entry inh inconclusive and Cruzain noTriton -11%.
For Cn1cc(CN2CCCC(C(=O)c3nccn3C)C2)c(-c2cccc(Cl)c2)n1 (stereo not given) the results were SARS PLP yeast 0%, RE007 growth inh 2%, StopGo reporter -21%, NS1 function inh -1%, LASV entry inh -21%[46.1 µM] and Marburg entry inh -24%[46.1 µM].
CC(C)CCCN1C(Nc2ccccc2)=NC[C@@H]1CC(C)C was read as SARS PLP yeast -5%, RE007 growth inh -8%, StopGo reporter -24% and NS1 function inh -6%.
Screening COC(=O)/C(C#N)=C/c1ccc(N2CCOCC2)c([N+](=O)[O-])c1 returned SARS PLP yeast 1%, RE007 growth inh -14%, StopGo reporter -3%, NS1 function inh -6%, LASV entry inh -15%[46.1 µM] and Marburg entry inh 15%[46.1 µM].
`Cc1ccccc1OCC(=O)OCC(=O)Nc1ccc(N2CCOCC2)cc1` gave SARS PLP yeast 0%, RE007 growth inh -11%, StopGo reporter -4% and NS1 function inh -6%.
Screening COc1ccc2oc(C(=O)N(CC(C)C)C3CCS(=O)(=O)C3)c(C)c2c1 (stereo not given) returned SARS PLP yeast 2%, RE007 growth inh 4%, StopGo reporter -19%, LASV entry inh -9% and Marburg entry inh 0%[46.1 µM].
COc1cc(C(=O)N[C@@H](Cc2c[nH]c3ccccc23)C(=O)O)cc(OC)c1OC was read as SARS PLP yeast 0%, RE007 growth inh -23%, StopGo reporter 18%, NS1 function inh 7%, LASV entry inh -2% and Marburg entry inh -12%[46.1 µM].
Screening Cc1ccc(Nc2ncccc2C(N)=O)cc1[N+](=O)[O-] returned Cruzain inh Det -4.9%, SARS PLP yeast -1%, RE007 growth inh -9%, StopGo reporter 11%, NS1 function inh 1%, LASV entry inh 15%, Marburg entry inh inconclusive and Cruzain noTriton -6%.
COc1ccc(C2(CNC(=O)c3ccccc3[N+](=O)[O-])CCOCC2)cc1 was read as SARS PLP yeast 0%, RE007 growth inh -12%, StopGo reporter 7%, NS1 function inh inconclusive, LASV entry inh 6% and Marburg entry inh 16%[46.1 µM].
CC(C)NC(=S)N/N=C/c1sc(N2CCCCC2)nc1-c1cccs1 was read as Cruzain inh Det -7.1%, SARS PLP yeast inconclusive, RE007 growth inh 2%, StopGo reporter -7%, NS1 function inh 24%, LASV entry inh -7%, Marburg entry inh inconclusive and Cruzain noTriton 32µM*.
`COC(=O)c1nc(NC(=O)C(C)C)n[nH]1` gave Cruzain inh Det 3.1%, SARS PLP yeast 2%, RE007 growth inh 3%, NS1 function inh -1%, LASV entry inh 0%, Marburg entry inh 5% and Cruzain noTriton -5%.
Screening Cc1nnnn1-c1ccc(CC(=O)O)cc1 returned SARS PLP yeast 0%, RE007 growth inh 2%, StopGo reporter -6%, NS1 function inh 3%, LASV entry inh 16%[46.1 µM] and Marburg entry inh 8%[46.1 µM].
CCC(=O)c1ccc(OCC(=O)Nc2ccccc2N2CCCCC2)cc1 was read as SARS PLP yeast 5%, RE007 growth inh -5%, StopGo reporter -22% and NS1 function inh 8%.
For Cc1ccc(N2C(=O)CC(N3CCSCC3)C2=O)c(C)c1 (stereo not given) the results were SARS PLP yeast -9%, RE007 growth inh -13%, StopGo reporter -27% and NS1 function inh 0%.
CCC/C(=N\NC(=O)c1cccc(C)c1)c1ccccc1 was read as Cruzain inh Det -2.6%, SARS PLP yeast -4%, RE007 growth inh -5%, StopGo reporter 11%, NS1 function inh -3%, LASV entry inh inconclusive, Marburg entry inh 0% and Cruzain noTriton -7%.
Screening Cn1c(=O)c(=O)n(C)c2cc(S(=O)(=O)N3CCN(c4ccccc4)CC3)ccc21 returned Cruzain inh Det -1.7%, StopGo reporter -10%, LASV entry inh 14%[46.1 µM], Marburg entry inh 2%[46.1 µM] and Cruzain noTriton -3%.
COC(=O)c1cc(N2C(=O)C3C4C=CC(CC4)C3C2=O)ccc1Cl (stereo not given) was read as SARS PLP yeast 1%, RE007 growth inh 6%, StopGo reporter -16%, NS1 function inh 6%, LASV entry inh -5% and Marburg entry inh 11%[46.1 µM].
COc1cc(C)nc(SCC(N)=O)n1 was read as Cruzain inh Det -3.5%, SARS PLP yeast -25%, RE007 growth inh -7%, StopGo reporter -5%, NS1 function inh -2%, LASV entry inh 12%, Marburg entry inh -5% and Cruzain noTriton 6%.

Next section; it opens with the 2 that closed the last part.
COC(=O)c1cc(N2C(=O)C3C4C=CC(CC4)C3C2=O)ccc1Cl (stereo not given) was read as SARS PLP yeast 1%, RE007 growth inh 6%, StopGo reporter -16%, NS1 function inh 6%, LASV entry inh -5% and Marburg entry inh 11%[46.1 µM].
COc1cc(C)nc(SCC(N)=O)n1 was read as Cruzain inh Det -3.5%, SARS PLP yeast -25%, RE007 growth inh -7%, StopGo reporter -5%, NS1 function inh -2%, LASV entry inh 12%, Marburg entry inh -5% and Cruzain noTriton 6%.
O=C(NCc1ccco1)/C(=C/c1ccc(C(F)(F)F)cc1)c1nc2ccccc2[nH]1 was read as Cruzain inh Det -6.1%, SARS PLP yeast 5%, RE007 growth inh 1%, StopGo reporter 21%, NS1 function inh inconclusive, LASV entry inh inconclusive, Marburg entry inh -29% and Cruzain noTriton -23%.
Screening O=C(OCC1CCCO1)c1ccc2c(c1)N(Cc1c(F)cccc1Cl)C(=O)c1ccccc1S2(=O)=O (stereo not given) returned Cruzain inh Det -1.4%, StopGo reporter -7%, LASV entry inh -4%[46.1 µM] and Cruzain noTriton -43%.
CC(=O)Nc1ccc(C2CN(C)CC2C(=O)c2ccc(Cl)cc2)cc1 (stereo not given) was read as SARS PLP yeast 0%, RE007 growth inh 20%, StopGo reporter -2%, NS1 function inh 2%, LASV entry inh -17% and Marburg entry inh 11%.
`N#Cc1ccc(-c2csc(NC(=O)c3ccc(N4C(=O)CCC4=O)cc3)n2)cc1` gave SARS PLP yeast 0%, RE007 growth inh -4%, StopGo reporter inconclusive, NS1 function inh 7%, LASV entry inh 13% and Marburg entry inh 18%[46.1 µM].
For O=C(NCCCn1ccnc1)C(=O)c1cn(CC(=O)N2CCCCCC2)c2ccccc12 the results were SARS PLP yeast 2%, RE007 growth inh -9%, StopGo reporter -7%, LASV entry inh -16% and Marburg entry inh 1%[46.1 µM].
Screening Cc1cc(NC(=O)c2ccccc2Cl)ccc1NC(=O)c1ccccc1 returned Cruzain inh Det -1.2%, StopGo reporter 1%, LASV entry inh inconclusive and Cruzain noTriton 9%.
`CSC1=NP(=S)(SC)N(C)c2nc3n(c21)CCC3` (stereo not given) gave Cruzain inh Det -0.9%, SARS PLP yeast -4%, RE007 growth inh 5%, StopGo reporter -29%, NS1 function inh -1%, LASV entry inh -3%, Marburg entry inh inconclusive and Cruzain noTriton -7%.
COc1ccc(-c2cnc(C)o2)cc1S(=O)(=O)Nc1ccc(C)c(N(C)C)c1 was read as Cruzain inh Det -2.2%, StopGo reporter 55%[activator], LASV entry inh -2%[46.1 µM] and Cruzain noTriton 9%.
`Cc1ccc(N(CC(=O)NC(C)C)C(=O)CCC(=O)Nc2ccccn2)cc1` gave SARS PLP yeast -4%, RE007 growth inh -8%, StopGo reporter 1%, NS1 function inh 1%, LASV entry inh 1% and Marburg entry inh 12%.
Cc1ccc2nc(C)cc(C(=O)Nc3nccs3)c2c1 was read as SARS PLP yeast 1%, RE007 growth inh 32%, StopGo reporter -8% and NS1 function inh -5%.
Screening CCOC(=O)c1c(-c2cccc(C)c2)csc1NC(=O)C1CC=CCC1C(=O)O (stereo not given) returned Cruzain inh Det -22%, SARS PLP yeast 4%, RE007 growth inh 10%, StopGo reporter -9%, NS1 function inh 24%, LASV entry inh -1%, Marburg entry inh -13% and Cruzain noTriton inconclusive.
Screening COc1ccc(CC(=O)N(C)C2CCCN(Cc3ccccc3F)C2)cc1OC (stereo not given) returned SARS PLP yeast -2%, RE007 growth inh -12%, StopGo reporter -14% and NS1 function inh 7%.
For N#Cc1ccc(CSc2ncccn2)cc1 the results were SARS PLP yeast 2%, RE007 growth inh -12%, StopGo reporter 23% and NS1 function inh -8%.
